# DUX4 inh = blocks DUX4-driven transcriptional activation; 293T-iDUX4 ZSCAN4-Gaussia luciferase reporter, 24 h; stronger effect = lower value; AID 1224904; activity change, negative = inhibition, % (concentration not given with the values); 37,000 compounds, 0.8% hits;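 active = -10% or lower and over 25 points stronger than a control reporter; inconclusive = -10% or lower with a smaller gap; inactive = above -10%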;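 also: 0% = median of neutral control wells and -100% = median of positive control wells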
# DUX4 inh difference = further read-out of DUX4 inh, marked with its call; Gaussia minus Italica difference, %; measured here: selective DUX4 reporter inhibition;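 worked out from the two reporters; negative = selective loss of the DUX4 reporter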
# DUX4 inh control = recorded beside DUX4 inh, whose call it bears; activity change, negative = inhibition, %; measured here: Italica tet-on control reporter;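 0 = neutral control and -100 = positive control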
# An asterisk follows results filed as active; ? = inconclusive; nt = not tested or not shown; & = joins results of further samples.
SMILES,DUX4 inh,DUX4 inh difference,DUX4 inh control
COc1ccc2c3c(n(C)c2c1)[C@@H](CO)N(C(C)=O)CC31CN(C(=O)c2ccccc2)C1,?,nt,nt
O=C(Nc1ccc2c(c1)[C@H]1C[C@@H](CC(=O)N3CCOCC3)O[C@H](CO)[C@H]1O2)Nc1ccccc1F,-2,0,-2.2
CO[C@H]1CN(C)C(=O)c2ccc(NC(=O)Nc3ccc(C(F)(F)F)cc3)cc2OC[C@@H](C)NC[C@@H]1C,?,nt,nt
COC(=O)C[C@H]1CC[C@H]2[C@@H](COC[C@@H](O)CN2CCC(F)(F)F)O1,5,1,4.2
CN(C)C(=O)[C@@H]1[C@@H](CO)[C@@H]2Cn3c(ccc(-c4cncnc4)c3=O)[C@@H]2N1Cc1cc(F)ccc1F,-6,-17,11
COCC(=O)N1[C@H](C#N)[C@H](c2ccccc2-c2cccc(OC)c2)[C@H]1CO,10,1,9.1
C[C@H]1CN([C@@H](C)CO)C(=O)c2cc(NC(=O)C3CCCCC3)ccc2O[C@@H]1CN(C)Cc1ccc2c(c1)OCO2,-3,-3,0.4
CC(C)NC(=O)N[C@H]1CC[C@@H](CCNC(=O)C2CCOCC2)O[C@H]1CO,2,4,-1.7
C/C=C/c1ccc([C@H]2[C@@H](CO)N3C(=O)CN(C(=O)CC4CC4)C[C@@H]23)cc1,6,4,2.7
O=C(c1ccccn1)N1CC2(C1)[C@@H](c1ccccc1)[C@@H](CO)N2C(=O)C1CCCCC1,0,1,-0.8
C[C@@H]1CN([C@H](C)CO)C(=O)c2ccccc2-c2ccccc2CO[C@@H]1CN(C)C(=O)Nc1cccc(Cl)c1Cl,-3,11,-14
CCCN(C)C[C@H]1OCCCC[C@@H](C)Oc2ccc(NC(=O)CCCN(C)C)cc2C(=O)N([C@@H](C)CO)C[C@H]1C,-1,0,-1.4
CC(C)(C)[S@](=O)N1Cc2cc(C(=O)NCc3ccccc3F)nc(-c3cccc(-c4ccncc4)c3)c2[C@@H]1CCO,?,nt,nt
C[C@@H]1CN([C@H](C)CO)C(=O)c2cccc(NS(=O)(=O)c3cccs3)c2O[C@@H]1CN(C)Cc1ccc2c(c1)OCO2,-1,3,-3.1
O=C(C[C@@H]1CC[C@@H]2[C@H](COC[C@@H](O)CN2Cc2ccccc2F)O1)N1CCc2ccccc2C1,-2,-6,4.0
CCCNC(=O)C[C@H]1CC[C@H]2[C@@H](COc3ccc(NC(=O)CC)cc3C(=O)N2C)O1,1,-4,5.3
O=C(Nc1ccccc1F)N1CC(=O)N2[C@@H](CO)[C@H](c3ccc(-c4cccnc4)cc3)[C@@H]2C1,7,-3,9.6
CCCNC(=O)[C@H]1[C@H](CO)[C@H]2Cn3c(ccc(-c4cncnc4)c3=O)[C@@H]1N2C(=O)Nc1ccccc1,-1,-6,5.4
C/C=C/c1ccc([C@H]2[C@@H](CO)N(S(C)(=O)=O)[C@@H]2CN(CCC)C(C)=O)cc1,0,0,-0.3
C[C@@H]1CN([C@H](C)CO)C(=O)CCCn2nncc2CO[C@@H]1CN(C)Cc1cccc2c1OCCCO2,9,7,1.6
CN(C)C(=O)c1cccc(-c2ccc3c(c2)[C@@H]2[C@@H](CCN2S(=O)(=O)c2cn(C)cn2)[C@H](CO)N3)c1,25,14,12
C/C=C/c1ccc([C@@H]2[C@H](CO)N(Cc3cncnc3)C23CN(C(=O)COC)C3)cc1,5,0,4.5
C[C@@H]1CN([C@H](C)CO)C(=O)c2cc(NC(=O)C3CCCCC3)ccc2O[C@@H](C)CCCCO[C@H]1CN(C)C(=O)Nc1ccc2c(c1)OCO2,2,-1,2.8
O=C(C[C@@H]1CC[C@@H]2[C@H](COC[C@H](O)CN2CCc2ccccc2)O1)NCc1ccc(Oc2ccccc2)cc1,?,nt,nt
C[C@@H]1CN([C@H](C)CO)C(=O)c2cc(C3=CCCCC3)cnc2O[C@@H]1CN(C)C(=O)CN1CCOCC1,-3,1,-3.4

# Some of these compounds in order of their number in DUX4 inh difference, smallest number first.
SMILES,DUX4 inh,DUX4 inh difference,DUX4 inh control
O=C(C[C@@H]1CC[C@@H]2[C@H](COC[C@@H](O)CN2Cc2ccccc2F)O1)N1CCc2ccccc2C1,-2,-6,4.0
CCCN(C)C[C@H]1OCCCC[C@@H](C)Oc2ccc(NC(=O)CCCN(C)C)cc2C(=O)N([C@@H](C)CO)C[C@H]1C,-1,0,-1.4
COCC(=O)N1[C@H](C#N)[C@H](c2ccccc2-c2cccc(OC)c2)[C@H]1CO,10,1,9.1

# Carrying on.
SMILES,DUX4 inh,DUX4 inh difference,DUX4 inh control
C/C=C/c1ccc([C@@H]2[C@@H](CO)N(C(=O)CC)[C@@H]2CN(C)S(C)(=O)=O)cc1,0,1,-1.3
CC(=O)N1[C@@H]2c3ccc(-c4ccccc4)c(=O)n3C[C@H]1[C@H](CO)[C@H]2C(=O)NCCCN1CCOCC1,-1,0,-1.0
CCC(=O)N1CC2(CCN(C(=O)Nc3ccccc3F)CC2)c2c([nH]c3cc(OC)ccc23)[C@H]1CO,11,-3,14
CCCC(=O)Nc1ccc2c(c1)C(=O)N(C)C[C@@H](OC)[C@@H](C)CN(CCC(F)(F)F)[C@H](C)CO2,8,7,1.3
COCCNC(=O)C[C@H]1C[C@H]2c3cc(NS(=O)(=O)c4ccccc4)ccc3O[C@H]2[C@H](CO)O1,-3,-4,1.6
CCCN1[C@@H]2c3ccc(-c4ccc(F)cc4)c(=O)n3C[C@H]1[C@H](CO)[C@H]2C(=O)NCC1CC1,-1,-8,6.7
Cc1noc(C)c1S(=O)(=O)N(C)C[C@@H]1OCCCC[C@@H](C)Oc2ccc(NC(=O)c3ccccc3)cc2C(=O)N([C@H](C)CO)C[C@@H]1C,3,4,-1.8
COc1ccccc1-c1ccc2n(c1=O)C[C@@H]1[C@@H](CO)[C@H](C(=O)Nc3nccs3)N(C)[C@H]21,6,-2,8.0
CCCN(C)C[C@H]1OCCCC[C@H](C)Oc2ccc(N(C)C)cc2C(=O)N([C@H](C)CO)C[C@H]1C,4,6,-2.0
O=C(C[C@H]1CC[C@@H]2[C@H](COC[C@@H](O)CN2S(=O)(=O)c2ccc(Cl)cc2)O1)NCc1ccc(Cl)c(Cl)c1,?,nt,nt
C[C@@H]1CN([C@@H](C)CO)C(=O)c2ccccc2-c2ccccc2CO[C@H]1CN(C)C(=O)NC1CCCCC1,8,0,7.9
O=C(NCCCN1CCOCC1)[C@H]1N[C@H]2c3ccc(C4=CCCC4)c(=O)n3C[C@H]2[C@@H]1CO,-7,-8,1.2
COC(=O)[C@H]1[C@H](CO)[C@H]2Cn3c(ccc(-c4cccc(F)c4)c3=O)[C@H]2N1Cc1ccccn1,3,1,2.0
O=C(C[C@@H]1C[C@H]2c3cc(NC(=O)CC4CC4)ccc3O[C@H]2[C@H](CO)O1)NCCc1ccccc1,1,3,-1.4
CO[C@@H](CN(C)C(=O)c1ccc2c(c1)OCO2)[C@H](C)CN([C@@H](C)CO)S(=O)(=O)c1ccc(F)cc1,1,1,-0.8
CCCNC(=O)N1CCC2(CC1)CN(C(=O)CCC)[C@H](CO)c1[nH]c3cc(OC)ccc3c12,14,-5,19
CNC[C@H]1Oc2ncc(-c3cncnc3)cc2C(=O)N([C@H](C)CO)C[C@@H]1C,-2,-5,2.8
C[C@@H]1CCCCO[C@H](CN(C)C(=O)Nc2cccc3ccccc23)[C@@H](C)CN([C@@H](C)CO)C(=O)c2cc(NS(=O)(=O)c3cn(C)cn3)ccc2O1,0,2,-1.9
O=C(C1CCC1)N1CC(=O)N2[C@H](CO)[C@H](c3ccc(Br)cc3)[C@H]2C1,4,-8,11
O=C(NCC1CC1)[C@H]1[C@H](CO)[C@H]2Cn3c(ccc(-c4ccncc4)c3=O)[C@H]2N1Cc1cocn1,9,10,-1.2
COc1ccccc1S(=O)(=O)N(C)C[C@@H]1Oc2ncc(-c3ccc(C)cc3)cc2C(=O)N([C@@H](C)CO)C[C@@H]1C,-3,-7,3.7
CCCNC(=O)N1CC[C@@H]2[C@H]1c1cc(-c3ccccc3)ccc1N(C)[C@H]2CO,-3,3,-6.4
CCCC(=O)N1CCC2(CC1)CN(Cc1ccc(Cl)cc1)[C@H](CO)c1[nH]c3cc(OC)ccc3c12,-63*,-33*,-31*
COc1ccccc1C#Cc1ccc([C@H]2[C@@H](CO)N3CCCCN(S(C)(=O)=O)C[C@@H]23)cc1,-8,-4,-3.6
CCC(=O)N1CC[C@@H]2[C@H]1c1cc(-c3ccccc3F)ccc1N(C)[C@@H]2CO,1,-1,2.2

# Ordered by number of heavy atoms (lowest first): 10 of the compounds above
SMILES,DUX4 inh,DUX4 inh difference,DUX4 inh control
O=C(C1CCC1)N1CC(=O)N2[C@H](CO)[C@H](c3ccc(Br)cc3)[C@H]2C1,4,-8,11
C/C=C/c1ccc([C@@H]2[C@@H](CO)N(C(=O)CC)[C@@H]2CN(C)S(C)(=O)=O)cc1,0,1,-1.3
CCC(=O)N1CC[C@@H]2[C@H]1c1cc(-c3ccccc3F)ccc1N(C)[C@@H]2CO,1,-1,2.2
CCCNC(=O)N1CC[C@@H]2[C@H]1c1cc(-c3ccccc3)ccc1N(C)[C@H]2CO,-3,3,-6.4
O=C(NCCCN1CCOCC1)[C@H]1N[C@H]2c3ccc(C4=CCCC4)c(=O)n3C[C@H]2[C@@H]1CO,-7,-8,1.2
COC(=O)[C@H]1[C@H](CO)[C@H]2Cn3c(ccc(-c4cccc(F)c4)c3=O)[C@H]2N1Cc1ccccn1,3,1,2.0
CCCC(=O)Nc1ccc2c(c1)C(=O)N(C)C[C@@H](OC)[C@@H](C)CN(CCC(F)(F)F)[C@H](C)CO2,8,7,1.3
CCCC(=O)N1CCC2(CC1)CN(Cc1ccc(Cl)cc1)[C@H](CO)c1[nH]c3cc(OC)ccc3c12,-63*,-33*,-31*
O=C(C[C@H]1CC[C@@H]2[C@H](COC[C@@H](O)CN2S(=O)(=O)c2ccc(Cl)cc2)O1)NCc1ccc(Cl)c(Cl)c1,?,nt,nt
C[C@@H]1CCCCO[C@H](CN(C)C(=O)Nc2cccc3ccccc23)[C@@H](C)CN([C@@H](C)CO)C(=O)c2cc(NS(=O)(=O)c3cn(C)cn3)ccc2O1,0,2,-1.9

# New compounds follow
SMILES,DUX4 inh,DUX4 inh difference,DUX4 inh control
COc1ccc(CNC(=O)C[C@H]2CC[C@@H](NC(=O)CN(C)C)[C@@H](CO)O2)cc1,5,-4,8.7
Cn1cnc(S(=O)(=O)N2[C@@H]3CNC[C@H]2C3c2ccc(-c3cccnc3)cc2)c1 (stereo not given in full),10&16,11&18,-1.1&-2.0
CCCC#Cc1ccc([C@H]2[C@@H](CO)N(C(=O)C3CCC3)[C@H]2C#N)cc1,-3,-1,-2.8
CC(C)NC(=O)NCC[C@H]1CC[C@H](NC(=O)c2ccc(F)cc2)[C@@H](CO)O1,2,3,-0.4
Cc1cccc(NC(=O)Nc2ccc3c(c2)C(=O)N(C)[C@H]2CC[C@H](CC(=O)NCc4ccccc4Cl)O[C@@H]2CO3)c1,-5,-5,-0.3
O=C(NCC1CC1)[C@@H]1[C@@H](CO)[C@@H]2Cn3c(ccc(-c4cccnc4)c3=O)[C@@H]2N1C(=O)NC1CCCC1,-8,-11,3.7
O=C(NC[C@@H]1N[C@@H](CO)[C@H]1c1ccccc1)C1CCC1,-1,1,-2.3
CO[C@H]1CN(C)C(=O)c2cc(NS(=O)(=O)c3ccc(Cl)cc3)ccc2OC[C@H](C)N(C(=O)NC(C)C)C[C@@H]1C,-2,-4,2.1
COc1cccc(C(=O)Nc2ccc3c(c2)C(=O)N(C)[C@@H]2CC[C@@H](CC(=O)NCCCN4CCOCC4)O[C@@H]2CO3)c1,-3,-2,-1.7
CC(C)NC(=O)N(C)C[C@@H]1Oc2cc(C#Cc3ccccn3)ccc2S(=O)(=O)N([C@@H](C)CO)C[C@@H]1C,-3,-1,-1.6
CCN1[C@@H]2c3ccc(-c4cncnc4)c(=O)n3C[C@@H]2[C@@H](CO)[C@@H]1C(=O)OC,10,10,0.1
CN1C(=O)c2cc(NC(=O)Cc3cccs3)ccc2OC[C@H]2O[C@H](CC(=O)NCCc3ccncc3)CC[C@H]21,0,-1,0.9
O=C(NCC1CCCCC1)[C@H]1[C@H](CO)[C@H]2Cn3c(ccc(C4=CCCCC4)c3=O)[C@@H]1N2,-1,-1,0.5
CNC(=O)C[C@H]1CC[C@@H]2[C@@H](COc3ccc(NC(=O)Nc4ccc(F)c(F)c4)cc3C(=O)N2C)O1,-1,-7,6.2
CC[C@H]1CC=CC[C@@H](C)Oc2ccccc2C(=O)N(C)[C@@H](C(C)C)C(=O)N1 (mixture of isomers),-4,-4,-0.4
C[C@@H](NC(=O)[C@@H]1[C@@H](CO)[C@@H]2Cn3c(cccc3=O)[C@@H]2N1CCC(F)(F)F)c1ccccc1,-2,-4,2.4
CCC(=O)N1[C@@H]2c3ccc(/C=C/c4ccccc4)c(=O)n3C[C@@H]2[C@@H](CO)[C@@H]1C(=O)Nc1nccs1,-5,-5,-0.8
C[C@@H]1CN([C@@H](C)CO)C(=O)c2c(c3ccccc3n2C)-c2ccccc2CO[C@@H]1CN(C)Cc1ccc(O)cc1,-9,-7,-1.9
C/C=C/c1ccc2c(c1)O[C@@H](CN(C)C(=O)c1cccc(F)c1)[C@@H](C)CN([C@H](C)CO)S2(=O)=O,1,2,-1.1
CC(C)NC(=O)N1CC[C@@H]2[C@H]1c1cc(-c3ccc(F)cc3)ccc1N(C)[C@@H]2CO,0,0,-0.1
CN(C)CC(=O)N1[C@@H]2Cn3c(ccc(C4=CCCC4)c3=O)[C@H]1[C@@H](C(=O)NCC1CCCCC1)[C@@H]2CO,-2,-6,4.0
CNC[C@@H]1Oc2ccc(NC(=O)C3CCCCC3)cc2C(=O)N([C@H](C)CO)C[C@H]1C,-1,-1,-0.3
CC(C)C#Cc1ccc([C@H]2[C@H](C#N)N(C(=O)c3ccccn3)[C@H]2CO)cc1,4,0,4.6
COc1ccc(C#Cc2cccc(-c3nc(C(=O)N4CCN(C)CC4)cc4c3[C@@H](CCO)N(S(=O)C(C)(C)C)C4)c2)cc1OC (stereo not given in full),0,0,-0.1

# Compound activity deposited in PubChem by Broad Institute.

# This is a subset, so the mix of outcomes need not match the whole.
